Assay outcomes: PubChem BioAssay, several laboratories
Arbovirus anti = antivirals against arbovirus infection, primary screen, cell-based, full library, 10K replicate subset. 200,000 tested, 0.37% active. AID 1251, 2008. inhibition, % at 10 µM. arbovirus infection cell-based antiviral screen;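 active = inhibition from about 30%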;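 also: bluetongue infection of BSR cells; cell survival read as ATP light after 72 h; 0% = infected wells without compound and 100% = uninfected wells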
Mtb H37Rv = M. tuberculosis H37Rv growth inhibitors, H37Rv strain (AID 1626); inhibition, % at 10 µM; hits with a dose series show IC50 in µM; M. tuberculosis H37Rv growth inhibition; higher % means a stronger effect; 220,000 tested, 0.95% active;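 active = confirmed in a dose series; inconclusive = inhibition above 80% but not taken into the dose series; inactive = below 80% or under 30% at every dose of the series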;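 also: bacteria incubated seven days before Alamar blue readout; 0% = bacteria only wells and 100% = bacteria with antibiotic wells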
YopH inh = YopH tyrosine phosphatase inhibitors, primary screen, biochemical, fluorescence Ex485/Em525. YopH tyrosine phosphatase [Yersinia enterocolitica]. inhibition, %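 (about 10 µM by stock and volumes)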. 140,000 tested, 0.16% active. AID 898, 2007;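 active = inhibition of 50% or more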;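 also: controls were vehicle for no effect and minimum signal wells for full effect; inactives centre near -20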
RecA splice inh = Mtb RecA intein splicing inhibitors, primary screen, biochemical, fluorescence, HTS; Protein RecA (Mycobacterium tuberculosis (strain ATCC 25618 / H37Rv)), P9WHJ3; cell-free RecA intein splicing; inhibition, %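 (about 9 µM by stock and volumes)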; 290,000 tested, 0.75% active; in the data active = inhibition above about 30%; inconclusive = no clear call, values can overlap the other calls;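 also: 0% = vehicle wells and 100% = reference inhibitor control wells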
Target sequence (P9WHJ3 whole entry, looked up, canonical isoform): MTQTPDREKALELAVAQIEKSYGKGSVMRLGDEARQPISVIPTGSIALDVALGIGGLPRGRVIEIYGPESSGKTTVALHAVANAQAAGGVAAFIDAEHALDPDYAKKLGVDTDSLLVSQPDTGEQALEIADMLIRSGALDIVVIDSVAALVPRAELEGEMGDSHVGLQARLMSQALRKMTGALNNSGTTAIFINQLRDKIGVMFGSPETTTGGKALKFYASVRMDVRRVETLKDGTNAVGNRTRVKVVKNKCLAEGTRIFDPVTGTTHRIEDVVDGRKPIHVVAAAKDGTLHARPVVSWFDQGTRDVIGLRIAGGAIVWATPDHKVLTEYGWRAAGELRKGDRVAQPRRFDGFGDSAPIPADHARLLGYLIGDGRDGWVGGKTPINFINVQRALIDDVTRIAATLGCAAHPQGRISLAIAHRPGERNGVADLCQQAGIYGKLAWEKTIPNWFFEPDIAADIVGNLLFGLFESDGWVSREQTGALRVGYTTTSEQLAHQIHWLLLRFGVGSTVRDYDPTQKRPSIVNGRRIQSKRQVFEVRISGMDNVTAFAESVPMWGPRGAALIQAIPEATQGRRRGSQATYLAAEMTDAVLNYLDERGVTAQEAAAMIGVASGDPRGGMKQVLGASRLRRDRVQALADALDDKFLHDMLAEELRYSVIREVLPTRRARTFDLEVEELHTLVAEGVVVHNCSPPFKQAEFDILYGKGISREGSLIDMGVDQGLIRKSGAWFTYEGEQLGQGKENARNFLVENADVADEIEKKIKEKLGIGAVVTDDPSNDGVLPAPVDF
Mtb bLac sens = beta-lactam sensitization of Mtb H37Rv, H37Rv. M. tuberculosis H37Rv growth with meropenem, percent inhibition; hits of this screen are not shown here. inhibition, % at 25 µM. 330,000 tested, 0.27% active;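 active = about 74% or more and at least 40 points above the plate without the antibiotic, then above 30% in a dose series; inconclusive = first-round hits that could not be retested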;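 also: growth measured after seven days incubation then overnight dye step; 0% = bacteria only wells and 100% = bacteria with antibiotic; twin plates without the antibiotic show which effects depend on it; some results filed as inactive read as strong as hits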
Arbovirus anti repeat = also measured in Arbovirus anti; calls as there; inhibition, %; measured here: 10K subset replicate screen; many hits read low in the repeat;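 first of two repeat runs on a subset; 0% = infected and 100% = uninfected wells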
An asterisk follows results filed as active; ? = inconclusive; . = not tested or not shown. An excerpt (hit frequency here may not be typical).

SMILES	Arbovirus anti	Mtb H37Rv	YopH inh	RecA splice inh	Mtb bLac sens	others
O=C1O/C(=C\c2ccccc2)c2ccccc21	-2	2%	-31	4.8	3
O=C(Nc1ccccc1N1CCN(C(=O)c2ccc(Cl)cc2)CC1)c1ccc2c(c1)OCO2	-6	3%	5	9.6	13
O=C1NC(CCc2ccccc2)C(=O)N1CCOc1cccc(Br)c1 (centres undefined)	4	5%	.	2.2	0
Cc1ccc(S(=O)(=O)NC(=O)COc2ccc(Cl)cc2Cl)cc1	.	.	.	0.3	-2
Cc1ccc(NC(=O)CN2C(=O)S/C(=C\c3cc(Cl)c(OCC(=O)O)c(Cl)c3)C2=O)cc1	.	.	.	12	-1
Cc1ccc(S(=O)(=O)N(CC(=O)NCCC2=CCCCC2)Cc2ccccc2)cc1	-38	2%	-21	13	12
CCN1CCN(C(=O)c2ccc(N3CC4CC(C3)c3cccc(=O)n3C4)c(NC(=O)c3cc(OC)cc(OC)c3)c2)CC1 (centres undefined)	.	.	.	-1.8	5
Cc1ccc(S(=O)(=O)Nc2nc3ccccc3nc2N2CCc3ccccc3C2)cc1	0	.	-25	-8.2	1
COc1ccc(N2CCN(C(=O)NC34CC5CC(CC(C5)C3)C4)CC2)cc1	7	0%	-21	2.7	7
Cc1cc(=O)n2[nH]c(Nc3cccc(Cl)c3)nc2n1	.	.	.	1.1	81
Cc1ccc(SCC(=O)c2cc(C)c(OC(=S)N(C)C)c(C)c2)cc1	17	-10%	-5	14	11
COc1c2occc2c(OC(C)=O)c2c(=O)cc(C)oc12	.	.	.	-6.3	?
O=C(O)C1CCN(S(=O)(=O)c2cccc3nonc23)CC1	.	.	.	-3.2	-2
Cn1nc(-c2ccc(Cl)cc2)c2cc(C(=O)NC3CC3)sc21	-15	20%	-45	.	2	Arbovirus anti repeat=-12
S=c1[nH]nc(COc2ccccc2)n1/N=C/C=C/c1ccco1	.	6%	.	6.3	2
COc1ccccc1CCc1nnc(CCC(=O)NCC2CCCO2)o1 (centres undefined)	.	.	.	2.9	-1
COc1cc2cc(CN(Cc3cccs3)C(=S)Nc3ccc(C)cc3)c(=O)[nH]c2cc1OC	13	5%	-25	-3.0	-10
COC(=O)C1=C(C)OC(N)=C(C#N)C1c1ccc(OC)c(OC)c1OC (centres undefined)	-1	-7%	-7	-4.4	6
O=C(CCCn1c(SCC(=O)Nc2ccccc2Cl)nc2ccccc2c1=O)NCC1CCCO1 (centres undefined)	.	.	.	-3.7	13
CCCN1C(=S)c2ccccc2C1c1ccccc1 (centres undefined)	.	.	.	12	8
CC(C)C(NS(=O)(=O)c1cccs1)C(=O)NCCCN1CCCCCC1 (centres undefined)	.	.	.	-3.0	0
COc1cc(/C=N/NC(=O)c2cccnc2)ccc1OCC(=O)Nc1c(C)cc(C)cc1C	-1	-7%	-28	-2.1	3
CCCNC(=O)C(NS(=O)(=O)c1ccc2c(c1)c(=O)n(C)c(=O)n2C)c1ccccc1 (centres undefined)	10	-3%	-24	-3.0	-1
COc1ccc(CNC(=O)[C@H](C)[C@@H]2C[C@@]2(C)[C@@H](NC(=O)OCc2ccccc2)c2ccccc2)cc1OC	-9	0%	-5	3.5	-3
COc1ccc(CCNC(=O)c2c(C)nn(CC(C)C)c2Cl)cc1	.	.	.	1.0	-8
More compounds:
SMILES	Arbovirus anti	Mtb H37Rv	YopH inh	RecA splice inh	Mtb bLac sens	others
O=S(=O)(Nc1ccc(Cc2ccncc2)cc1)N1CCCC1	-3	-3%	25	-2.4	6
CS(=O)(=O)c1ccccc1C(=O)NCCC(c1ccccc1)c1ccccc1	.	.	.	2.6	1
COC(=O)C1CC(=O)N(CCc2c[nH]c3ccccc23)C1 (centres undefined)	-6	-12%	-7	0.1	-3
CC1(C)CC(=O)C(=C2SCCCS2)C(=O)C1	7	1%	-33	-1.8	4
O=C(Cn1cnc2ccccc21)N/N=C/c1ccccn1	-4	-2%	-34	0.7	-10
NC(=O)c1cccnc1Sc1ccc(Cl)cc1	3	-3%	-23	2.6	-4
O=C(NC1CCCCC1)c1cc2nc(-c3ccco3)cc(C(F)(F)F)n2n1	-12	-11%	-95	-12	.
O=C(Nc1ccccc1C(=O)O)c1ccc(NC(=O)c2ccc(Br)o2)cc1	46*	-10%	-3	.	-7
O=C(Nc1ccccc1)C1=C[C@H](c2csc3ccccc23)C[C@H](OCCCCO)O1	-15	23%	.	7.6	94
CCC(C)C(NC(=O)c1ccccc1NC(=O)c1ccco1)C(=O)NNC(=O)c1ccc(OC)cc1 (centres undefined)	-7	1%	-21	5.7	4
COc1ccc(-n2nnnc2SCC(=O)Nc2nc3c(s2)CCCC3)cc1	0	-4%	7	0.8	1
COc1ccccc1C(=O)NCCN1CCN(c2ccccc2)CC1	.	.	.	1.5	-3
Nc1ncc(Br)cc1S(=O)(=O)NCCC(=O)Nc1cccc(Cl)c1	4	0%	-33	-2.8	2
CSCCNCc1cn(-c2ccc(F)cc2F)nc1-c1ccccc1C	-1	-3%	.	0.7	6
CC(c1cccnc1)N(CCN(C)C)C(=O)Nc1ccc(Cl)cc1 (centres undefined)	1	-3%	-38	-0.7	-5
O=C(CCN1N=C(c2ccccc2)CCC1=O)NCCCN1CCOCC1	.	.	.	3.1	2
CCc1noc(C)c1C(=O)NCCc1ccccc1	.	.	.	-1.7	-13
S=C(Nc1ccc(Oc2ccccc2)cc1)Nc1cccnc1	.	.	.	3.4	83
Cc1nc2ccccc2n1Cc1ccc(Br)cc1	.	.	.	3.8	-6
CC(=NCCCn1ccnc1)c1c(O)n(Cc2ccccc2)c(=O)[nH]c1=O	-3	-7%	-23	4.4	-9
CCOc1ccccc1NC(=O)CN1C(=O)C(C)SC(C)C1=O (centres undefined)	7	-5%	.	-2.8	3
CCCCOc1nc2ccccc2nc1C(C#N)C(=O)NC1CCCCC1 (centres undefined)	-1	.	-15	-85	6
CS(=O)(=O)c1[nH]nc(-c2ccccc2Cl)c1C#N	.	0%	.	1.3	0
CCOC(=O)c1c(NC(C)=O)sc2c1C1CCN2CC1	.	-6%	2	.	0
Cc1ccc(CNC(=O)CCSCc2ccccc2C)cc1	.	.	.	2.1	1

The final 5 entries of the section above come first, to join the parts:
SMILES	Arbovirus anti	Mtb H37Rv	YopH inh	RecA splice inh	Mtb bLac sens	others
CCOc1ccccc1NC(=O)CN1C(=O)C(C)SC(C)C1=O (centres undefined)	7	-5%	.	-2.8	3
CCCCOc1nc2ccccc2nc1C(C#N)C(=O)NC1CCCCC1 (centres undefined)	-1	.	-15	-85	6
CS(=O)(=O)c1[nH]nc(-c2ccccc2Cl)c1C#N	.	0%	.	1.3	0
CCOC(=O)c1c(NC(C)=O)sc2c1C1CCN2CC1	.	-6%	2	.	0
Cc1ccc(CNC(=O)CCSCc2ccccc2C)cc1	.	.	.	2.1	1
CCN1C(=S)N[C@@H](c2cccs2)C(C(=O)OC)=C1C	.	.	.	0.2	-3
CCN(CC)C(=S)Nc1ccc2nc3n(c(=O)c2c1)CCCCC3	5	-1%	.	-3.8	-6
CC(C)Oc1ccc(C2CC(=O)NC3=C2C(=O)CCC3)cc1 (centres undefined)	-3	0%	-38	-1.1	0
Cc1noc(C)c1C(=O)OCC(=O)Nc1ccc(C(N)=O)cc1	3	4%	.	-0.9	2
Cc1ccc(S(=O)(=O)NCC(=O)N(CC(=O)NCC2CCCO2)Cc2ccc(Cl)cc2)cc1 (centres undefined)	.	.	.	4.1	-5
Cc1ccc(S(=O)(=O)NCCC(=O)Nc2ccc3c(c2)OCO3)cc1	-3	4%	-25	5.4	-1
Cc1cc(=O)[nH]c2c1c(=O)[nH]n2C1CC(C)N(C)CC1C (centres undefined)	6	-1%	-34	-5.6	-2
Cc1noc(NS(=O)(=O)c2ccc(NC(=O)CC34CC5CC(CC(Br)(C5)C3)C4)cc2)c1C	4	-2%	1	-3.4	0
CCCCCNc1nc(N2CCCC2)c2c(c1C#N)CCN(C)C2	-30	3%	-26	-13	99
S=C(NCc1ccccc1)N1CCN(c2cccc(Cl)c2)CC1	-21	1%	.	1.8	-1
CCOC(=O)C1(Cc2ccccc2C)CCCN(S(=O)(=O)c2cccnc2)C1 (centres undefined)	-6	-2%	.	1.9	5
CCOC(=O)C1(S(=O)(=O)c2ccccc2)CCN(Cc2ccccc2)CC1	0	-9%	-5	3.3	13
C=CCN(CC=C)S(=O)(=O)c1ccc(NC(=O)COc2ccccc2OC)cc1	-6	1%	-29	.	-9
CC(=O)SC1CC2=CC(=O)CCC2(C)C2CCC3(C)C(CCC34CCC(=O)O4)C12 (centres undefined)	2	-3%	.	1.8	-1
CCCOc1ccc(C(C)=O)cc1CN1CCOCC1	2	2%	-14	-0.1	-4
CCOCCCNC(=O)N[C@@H](Cc1ccccc1)C(=O)OC	0	-2%	-31	-1.5	-6
O=C(CNC(=S)N(Cc1ccccc1)Cc1ccccc1F)NCc1ccc(Cl)cc1	-30	3%	.	7.2	.
CCOc1c(C)cnc2c1c(=O)n(Cc1c(F)cccc1Cl)c(=O)n2C	.	.	.	-1.0	8
COc1ccc(NC(=S)N2CCN(Cc3ccccc3)CC2)cc1	5	1%	.	2.1	-3
Cc1ccc(S(=O)(=O)N2CCOCC2)cc1NC(=O)c1cccc(S(=O)(=O)N2CCCC2)c1	6	0%	.	2.1	-1
C[C@H]1CC[C@H]2NCCN[C@H]2C1	.	10%	.	-1.1	-3
Cc1cc(C)nc(/N=C(\N)Nc2ccc(CC(=O)OC(C)C)cc2)n1	.	.	.	1.6	6
O=C(Oc1ccccc1)N1CCN(c2ccccc2F)CC1	.	.	.	-3.8	2
COC(=O)C(Cc1ccc(O)cc1)NC(=O)c1ccccc1 (centres undefined)	2	2%	-31	-0.8	.
O=C(NCCCN1CCCC1=O)Nc1ccc(F)c(Cl)c1	11	12%	2	0.5	-4
Next section.
SMILES	Arbovirus anti	Mtb H37Rv	YopH inh	RecA splice inh	Mtb bLac sens	others
CCC1(C)Cc2ccccc2-c2nc(-c3ccccc3)oc(=O)c21 (centres undefined)	-10	-9%	-3	12	4
Cc1ccc(C(=O)NC(C(=O)NC2CCCC2)c2ccccc2)cc1 (centres undefined)	.	.	.	1.5	5
OC(COc1cccc2ccccc12)CN1CCCC1 (centres undefined)	-6	1%	-5	0.2	-2
Oc1ccc(C2C(c3ccccc3)=NN=C(c3ccccc3F)N2O)c(O)c1 (centres undefined)	21	8%	-28	2.7	4
Cc1n[nH]c(C)c1CCC(=O)N/N=C/c1cccc([N+](=O)[O-])c1	13	2%	.	0.4	-5
O=C(COC(=O)c1n[nH]c2ccccc12)Nc1ccc([N+](=O)[O-])cc1	2	-2%	10	-4.3	-5
CC(=O)Nc1ccc(C(=O)NNC(=O)c2ccc(Cl)cc2Cl)cc1	.	.	.	1.7	2
O=[N+]([O-])c1ccc(S(=O)(=O)NCCc2cn3ccccc3n2)cc1	-3	5%	-27	1.9	0
O=C(Nc1cccc(-c2cccc(Cl)c2)c1)C1CCN(C2CCC2)CC1	.	.	.	2.0	0
COc1ccc(C(=O)O)cc1S(=O)(=O)NC(C)C	.	-5%	.	-0.6	2
C=CCNC(=S)NNC(=O)C(CCCC)CC(C)(C)O (centres undefined)	5	-9%	-30	2.6	-27
CC1Cc2cc(/C(O)=C3/C(=O)C(=O)N(CCCn4ccnc4)C3c3ccco3)ccc2O1 (centres undefined)	8	-10%	-24	-0.7	-1
Cc1ccccc1N1C(=O)NC(=O)/C(=C\c2ccc3c(c2)CCCN3Cc2ccccc2)C1=O	2	-2%	-30	3.1	5
CCCCCCCCN1[C@@H](CC(=O)O)c2cc(C(F)(F)F)ccc2S1(=O)=O	.	1%	.	-11	35
O=C(Nc1ccccn1)Nc1cccs1	1	-10%	-5	-3.2	-3
O=c1oc(-c2ccccc2)nc2sc3c(c12)CCCC3	32*	12%	3	-1.8	62
O=C(Oc1ccc([N+](=O)[O-])cc1)c1ccc(Cl)c(S(=O)(=O)N2CCCCC2)c1	3	-4%	-32	7.2	11
O=C(c1c[nH]c2ccccc12)N1CCN(c2ccccc2)CC1	1	5%	.	-1.1	-7

3 compounds out of the list, arranged by heavy-atom count, lowest first:
SMILES	Arbovirus anti	Mtb H37Rv	YopH inh	RecA splice inh	Mtb bLac sens	others
C=CCNC(=S)NNC(=O)C(CCCC)CC(C)(C)O (centres undefined)	5	-9%	-30	2.6	-27
O=C(c1c[nH]c2ccccc12)N1CCN(c2ccccc2)CC1	1	5%	.	-1.1	-7
CCC1(C)Cc2ccccc2-c2nc(-c3ccccc3)oc(=O)c21 (centres undefined)	-10	-9%	-3	12	4
